TRPV1 PAM: human TRPV1 potentiation; Q8NER1; actives 0.02% (n = 320,000); TRPV1-expressing cells, Fluo-8 calcium influx, capsaicin EC20 potentiation; host cell line not named in the record; control for the full effect not named in the record; potentiation, % at 8.33 µM; active means potentiation above 80%; inconclusive means 30% to 80%; inactive means below 30%; further: 0% is about no effect
Target sequence (Q8NER1 whole entry, looked up): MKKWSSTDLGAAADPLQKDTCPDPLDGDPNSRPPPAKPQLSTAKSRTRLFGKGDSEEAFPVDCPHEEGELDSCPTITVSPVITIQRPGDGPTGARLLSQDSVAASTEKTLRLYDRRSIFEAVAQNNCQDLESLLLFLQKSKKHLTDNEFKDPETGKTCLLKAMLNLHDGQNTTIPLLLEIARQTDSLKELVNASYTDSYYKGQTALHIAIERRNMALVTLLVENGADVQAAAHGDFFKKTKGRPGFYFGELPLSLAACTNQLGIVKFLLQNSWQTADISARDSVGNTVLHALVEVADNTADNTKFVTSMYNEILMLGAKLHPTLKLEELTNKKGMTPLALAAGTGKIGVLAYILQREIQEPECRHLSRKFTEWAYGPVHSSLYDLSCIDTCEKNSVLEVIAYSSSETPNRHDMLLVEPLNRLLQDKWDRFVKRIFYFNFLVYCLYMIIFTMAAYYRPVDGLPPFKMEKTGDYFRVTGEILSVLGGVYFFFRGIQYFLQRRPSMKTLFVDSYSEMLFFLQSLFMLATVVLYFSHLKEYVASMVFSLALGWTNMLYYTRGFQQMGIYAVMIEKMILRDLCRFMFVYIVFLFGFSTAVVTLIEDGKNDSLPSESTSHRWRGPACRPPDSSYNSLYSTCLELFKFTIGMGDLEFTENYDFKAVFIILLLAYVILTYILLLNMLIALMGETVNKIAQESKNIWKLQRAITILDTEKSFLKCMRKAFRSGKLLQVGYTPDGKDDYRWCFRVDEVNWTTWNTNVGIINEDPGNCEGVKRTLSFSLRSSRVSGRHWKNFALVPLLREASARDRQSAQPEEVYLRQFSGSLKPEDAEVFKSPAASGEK
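Fluo-8 calcium influx in TRPV1-expressing cells, kinetic read (ex 480/em 520 nm). Compound added and read 3 min for agonist activity, followed by capsaicin at EC20 final and 2 min further read for enhancement.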
CtBP-E1A blk: blocks the CtBP interaction with E1A. actives 0.49% (n = 340,000). AlphaScreen GST-E1A/His-CtBP binding, 1536-well; hits give low values; control for the full effect not named in the record. activity change, % (test concentration not listed). AID 651724; in the data active means activity change below about -65%; inconclusive means about -30% to -65%; inactive means above about -30%; further: on the % scale 0 is the no-effect control and ±100 the full control effect; compound concentration not given in the record
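In 5 uL wells, 23 nL compound meets equimolar GST-E1A and His-CtBP (5X stock 125 nM each) for 2 h, 37 °C. Beads (5X, 50 ug/mL) then 1 h, 37 °C, dark.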
D2 potentiator: positive allosteric modulators of human D2 dopamine receptor | potentiation, % (test concentration not listed) | P14416 | actives 0.23% (n = 360,000) | DiscoveRx D2 beta-arrestin cells, luminescence, 90 min; 100% = 57 uM dopamine signal; active = potentiation of 50% or more; inconclusive = 30% to 50%; inactive = 30% or less;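 further: compound concentration not given in the record; tested on top of an EC20 dose of dopamine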
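PathHunter D2 cells, attached overnight at 37 deg C, received compound in DMSO plus dopamine at EC20 (50 nM final) for 90 min at 37 deg C. Beta-arrestin recruitment was read as luminescence after 1 h with detection reagent at ambient temperature.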
D2 agonist: human D2 receptor agonism in beta-arrestin assay. P14416. DiscoveRx PathHunter D2 beta-arrestin, luminescence, 90 min; 100% = 57 uM dopamine signal. activation, % (test concentration not listed). actives 0.084% (n = 360,000); in the data active = activation above about 40%; inconclusive = about 15% to 40%; inactive = below about 15%; further: compound concentration not given in the record; the text of the record calls up to 30% inactive
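Agonist mode: compounds alone added to overnight-plated D2 PathHunter cells for 90 min at 37 C, with 57 uM final dopamine (EC100) defining full response. Beta-arrestin recruitment detected by chemiluminescent reagent, read after 1 h at ambient temperature.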
Six1-Eya2 inh: inhibitors of human Six1/Eya2 interaction | Q15475+O00167 | AlphaScreen GST-Six1/His-Eya2 binding, biochemical; hits give low values; control for the full effect not named in the record | activity change, % (test concentration not listed) | actives 0.56% (n = 360,000) | AID 651725; in the data active = activity change below about -65%; inconclusive = about -30% to -65%; inactive = above about -30%; further: on the % scale 0 is the no-effect control and ±100 the full control effect; compound concentration not given in the record
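Compounds are tested against tagged Six1 and Eya2 proteins bridged by glutathione donor and nickel acceptor beads; after a one-hour incubation at 37 °C without light, AlphaScreen emission is recorded.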
Sfp inh: inhibitors of Bacillus subtilis Sfp phosphopantetheinyl transferase | Potency, µM, inactives show max response, negative = inhibition, most hits filed as inhibitors | AID 1490 | actives 3.5% (n = 310,000) | Biochemical Sfp PPTase activity, qHTS; active means well fitted inhibition curve with a large enough effect; inconclusive means small, poorly fitted or top-dose-only effect, or another doubt; inactive means no such curve, though single readings can be large or run the other way;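 further: the enzyme is Sfp with the accession as filed and its product quenches rhodamine fluorescence; potency means the concentration at half of the fitted maximal effect; 0% = enzyme reaction without inhibitor and -100% = no enzyme wells; top concentration of the series not given in the record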
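With Hepes-Na pH 7.6 buffer containing 10 mM MgCl2, Sfp (15 nM) modified BHQ-2-YbbR (12.5 uM) using rhodamine-CoA (5 uM). Two reads 30 minutes apart at 525/598 nm yielded each well's rate.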
PINK1 modulator: modulators of PINK1 expression | PINK1 immunofluorescence, high-content cytometry, 24 h | Potency, µM (doses to about 76.6 µM), for the others: top-dose activation (PINK1 increase), most hits filed as activators | actives 0.2% (n = 410,000) | AID 624263; active = well fitted activation curve with a large enough effect; inconclusive = small, poorly fitted or top-dose-only effect; inactive = flat fitted curve, though single readings scatter; cell line not stated here;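 further: potency means the concentration at half of the fitted maximal effect; % of control where 0% means no effect; nearly all actives have a fitted effect of over 65% in size; a mitochondrial uncoupler was the plate control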
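Readout is PINK1 immunofluorescence, quantified alongside mitochondrial, cell and nuclear markers by laser-scanning microplate cytometry. Cells from a stable line were exposed to compound titrations (5 concentrations) for 24 hours, with CCCP controls.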
* hit, by the source's call; ? = inconclusive; · = not tested or not shown; & = joins results of further samples; [ ] = remark or other dose.

SMILES	TRPV1 PAM	CtBP-E1A blk	D2 potentiator	D2 agonist	Six1-Eya2 inh	Sfp inh	PINK1 modulator
Oc1c(C(c2ccccc2)N2CCOCC2)ccc2ccccc12 (stereo unspecified)	·	-5	?	3.1	-13	·	-0.3%
COc1ccc(C(=O)NC2CCCc3ccccc32)cc1 (stereo unspecified)	-6	11	-4	3.2	4	-3%	0.4%
CSCC[C@H](NC(=O)Nc1ccc(S(N)(=O)=O)cc1)C(=O)O	2	5	1	2.2	3	15%	0.2%
O=C(NC1CCCC1)C(c1ccsc1)N(C(=O)Cc1cccs1)c1ccc(F)cc1 (stereo unspecified)	5	9	9	-0.1	3	25%	-2.2%[38.3 µM]
NNc1nc2ccccc2c(=O)n1Cc1ccccc1	14	-17	2	2.6	3	20µM*	1.3%
CCOc1cc2c(Cl)ncnc2c(OCC)c1OCC	-3	-10	-11	-6.2	-15	6%	-0.6%
O=C(NC1CCc2ccccc21)c1cc(COc2ccc(F)cc2Cl)on1 (stereo unspecified)	11	4	-9	-1.7	-4	-2%	2.6%
OCCNc1nc2ccccc2[nH]1	-1	7	0	-4.5	8	8%	-0.7%
CCC1CCCCN1C(=O)CSc1nc2ccsc2c(=O)n1Cc1ccccc1 (stereo unspecified)	-2	2	-15	-1.5	3	5%	1.1%
CCOC(=O)NCCc1ccc(OC)cc1	-5	-2	12	-1.0	10	25%	2.0%
CN(CC(=O)Nc1ccc(Cl)c(C(F)(F)F)c1)C(=O)Cn1cc([N+](=O)[O-])ccc1=O	-10	-7	-2	-0.7	-11	·	1.5%
C(=Cc1c[nH]c2ccccc12)c1ccc2ccccc2n1	·	32	-19	-2.8	11	·	?
Cc1c(NS(=O)(=O)c2ccc(Cl)c(C(=O)OC(C)C(=O)N3CCOCC3)c2)c(=O)n(-c2ccccc2)n1C (stereo unspecified)	-4	17	4	1.3	5	12%	-1.2%
CCOC(=O)c1oc2ccccc2c1NC(=O)Cc1cccs1	-31	3	-2	-4.2	4	-2%	9.1%[38.3 µM]
CCC(=O)NCC(c1cccs1)S(=O)(=O)c1ccc(C)cc1 (stereo unspecified)	-3	-1	-20	-0.6	-1	7%	0.2%
O=C(c1cccc(Cl)c1)C1CCCN(C(=O)c2ccoc2)C1 (stereo unspecified)	0	-12	-2	-0.8	0	15%	-1.7%
Cc1ccc(NC(=O)CC2Oc3ccc(C)cc3NC2=O)cc1 (stereo unspecified)	4	-3	-3	-5.0	10	3%	8.3%
Cn1c(=O)c2cc(NC(=S)NCc3ccccc3F)ccc2n1Cc1cccc(C(F)(F)F)c1	·	-11	5	4.4	-3	·	0.9%
O=C(CCCN1C(=O)C(c2ccccc2)Oc2cccnc21)NCc1ccccc1F (stereo unspecified)	-16	4	-2	2.0	0	9%	0.7%
Cc1c(Cc2ccccc2)sc(/N=C/c2ccc3ccccc3c2)c1C(N)=O	5	-18	-8	-4.0	-13	-25%	18%
c1ccc(-c2noc(CN3CCN(C(c4ccccc4)c4ccccc4)CC3)n2)cc1	?	47	-8	-1.0	-1	11%	·
CCN(CC(=O)Nc1c(F)cccc1F)C(=O)Cc1ccccc1	-14	·	-4	-3.3	10	9%	2.0%
O=C(c1ccc2c(c1)N(Cc1ccc(F)cc1)C(=O)CS2)N1CCOCC1	-2	3	-1	0.9	6	7%	-4.7%[38.3 µM]
COc1cc(-c2nnc(COc3ccc4ccccc4c3)o2)cc(OC)c1OC	9	4	5	-0.8	-1	-4%	3.0%
CCCCOC(=O)/C=C/c1c(C)[nH]c(=O)[nH]c1=O	-8	-3	-11	-1.3	3	27%	-1.6%
COc1ccc(CNC(=O)C(CC(C)C)NC(=O)c2ccccc2C)cc1 (stereo unspecified)	5	-13	-5	-0.4	-2	-2%	-0.2%
COc1cc(/C=N/NC(=O)c2cccc(C(=O)N/N=C/c3ccc(O)c(OC)c3)n2)ccc1O	-4	-7	-1	0.9	-4	-5%	1.6%
C=CCn1cnc2scc(-c3ccc(OC)cc3)c2c1=O	3	4	0	2.6	9	5%	1.3%
Cc1cc2c(c(C)c1Cl)C(c1ccc3c(c1)OCO3)CC(=O)O2 (stereo unspecified)	·	-3	·	0.5	0	?	0.5%
O=C(Nn1cnnc1)c1cc(Cl)cc(Cl)c1	-4	4	-5	0.6	10	7%	1.6%
CS(=O)(=O)N(CC(=O)N1CCCC1)Cc1ccccc1	-5	2	-3	5.5	5	9%	1.9%
c1ccc2c(c1)nnn2-c1ncnc2sccc12	23	-15	-7	0.5	29	24%	-1.9%
C=CCNC(=S)N/N=C(\C)c1cccnc1	2	10	-1	-1.8	-9	16µM*	-0.5%
O=C(Cn1sc2ccccc2c1=O)Nc1ccc(Br)cc1	·	-2	-14	-4.8	-13	·	-1.8%
Cc1cc(/C=C(\C#N)C(=O)OCC(=O)Nc2ccc(OC(F)F)cc2)c(C)n1CC(C)C	-12	3	-23	-3.6	-11	9%	0.7%
O=C(O)c1ccc(S(=O)(=O)N2CCC3(CC2)CC(=O)c2ccccc2O3)cc1	-17	-4	12	0.2	9	·	0.4%
CCCNC(=O)c1ccc(N2CCC3(CC2)CC(c2ccc(Cl)cc2)=NO3)c([N+](=O)[O-])c1	5	0	-43	2.2	-8	10%	1.8%
COc1cc(CN(CCc2c(C)[nH]c3ccc(C)cc23)C(=S)NC(C)(C)C)cc(OC)c1OC	-9	-4	12	-6.8	-24	15%	-0.7%
Cc1cc(S(=O)(=O)N(Cc2ccccc2)Cc2ccc(N(C)C)cc2)ccc1-n1cnnn1	?	?	-5	2.1	?	-4%	?
COC/C=C/C1=CC2=CC(=O)C(C)(OC(=O)c3cnc4ccccc4n3)C(=O)C2=CN1Cc1ccco1 (stereo unspecified)	·	-8	-2	3.3	-3	3%	1.2%
COc1cc(/C=N\NC(=O)C2CC3C=CC2C3)ccc1O (stereo unspecified)	-5	21	1	-3.2	-8	7%	1.8%
COc1ccc(C(=O)N2CCc3c([nH]c4ccccc34)C2C(F)(F)F)cc1 (stereo unspecified)	-5	·	12	4.5	3	0%	3.8%
CCOP(=O)(c1c(F)c(F)c(F)c(F)c1F)C1(O)CCCCC1 (stereo unspecified)	-8	6	-20	0.9	7	25%	1.6%
COC(=O)c1sc2nc(C)cc(-c3ccccc3)c2c1N	-22	9	-10	-3.2	36	?	2.0%
COC(=O)CN(c1nc(C)cc(OC)n1)S(=O)(=O)c1ccccc1	0	0	-8	-2.5	26	16%	-3.0%
COc1ccc(N=Cc2c(O)[nH]c3ccccc23)cc1OC	-18	-17	15	-3.0	-29	-3%	1.1%
CSc1ccc(CN2CCN(C3CCCC3)C(CCO)C2)cc1 (stereo unspecified)	1	0	-32	-1.5	13	19%	2.7%
COCCN(C(=S)Nc1c(C)cccc1C)C(C)c1ccco1 (stereo unspecified)	25	4	14	6.8	1	4%	0.5%
CCOC(=O)CCSc1nc(-c2ccc3c(c2)OCO3)cc(C(F)(F)F)c1C#N	8	-20	8	-0.3	-11	9%	·
Cc1ccc(-c2nnc(-n3nc(C)cc3C)c3ccccc23)cc1	-2	3	-20	-2.6	0	4%	4.5%

Part of the list above, reformatted:
smiles,TRPV1 PAM,CtBP-E1A blk,D2 potentiator,D2 agonist,Six1-Eya2 inh,Sfp inh,PINK1 modulator
COCCN(C(=S)Nc1c(C)cccc1C)C(C)c1ccco1 (stereo unspecified),25,4,14,6.8,1,4%,0.5%
Cc1ccc(-c2nnc(-n3nc(C)cc3C)c3ccccc23)cc1,-2,3,-20,-2.6,0,4%,4.5%
CSc1ccc(CN2CCN(C3CCCC3)C(CCO)C2)cc1 (stereo unspecified),1,0,-32,-1.5,13,19%,2.7%
CCOC(=O)CCSc1nc(-c2ccc3c(c2)OCO3)cc(C(F)(F)F)c1C#N,8,-20,8,-0.3,-11,9%,·

(further entries)
SMILES	TRPV1 PAM	CtBP-E1A blk	D2 potentiator	D2 agonist	Six1-Eya2 inh	Sfp inh	PINK1 modulator
Cc1noc(/C=C/N(C)C)c1S(=O)(=O)N1CCCC(C(=O)NC2CCCCC2)C1 (stereo unspecified)	4	4	-4	0.3	-4	-2%	0.0%
CCOCCCN(Cc1ccco1)C(=O)c1cc2c(=O)[nH]c3ccc(C)cc3c2s1	-1	-7	0	4.0	?	-19%	0.7%&3.4%
Cc1c(C(=O)n2cnc3ccccc32)cccc1[N+](=O)[O-]	23	6	-1	-3.7	1	7%	-0.3%
CC1CCN(c2ccc(NC(=O)Cc3ccccc3)cc2)CC1	-8	-1	-3	3.5	-23	6%	3.5%
Cc1cc(C)cc(N(CC(=O)N2CCC(C)CC2)S(C)(=O)=O)c1	2	8	24	-3.6	-7	7%	-0.6%
c1ccc(-c2csc(N3CCc4ccccc4C3)n2)cc1	-14	0	-13	-3.5	0	-12%	0.7%
Cc1ccc(S(=O)(=O)CCc2nc3ccccc3[nH]2)cc1	3	12	-8	-0.8	-13	16%	0.5%
COc1ccc2oc(C(=O)N(C)CCOc3ccc(Cl)cc3)c(C)c2c1	8	3	-17	-7.0	3	-21%	3.3%
S=C(Nc1ccccc1)Nn1cnnc1	13	-7	4	-5.3	18	13µM*	-0.7%
Cc1noc(C)c1COc1ccc(C(=O)N2CCN(c3cccc(Cl)c3)CC2)cc1	-11	-2	21	3.7	-7	·	0.5%
COc1ccc(OC[C@@H](O)CNC(=O)c2cccc3c2C(=O)c2ccc(-c4ccc(F)cc4OCc4ccccc4)cc2S3(=O)=O)cc1	·	-28	-6	-3.5	-25	·	-2.0%
CCOC(=O)Nc1ccccc1C(=O)N1CCOCC1	0	0	-7	-3.2	3	8%	-3.3%
CC(Oc1ccc(Cl)cc1Cl)C(=O)Nc1ccc(OCC(=O)O)cc1 (stereo unspecified)	1	-5	-4	-3.1	3	18%	-0.8%
CC(=O)c1cccc(NC(=O)CSc2ccc(-c3ccco3)nn2)c1	18	-3	13	1.4	-27	20µM*	-3.2%
O=C(OCC(=O)N1CCCC1)c1ccc(S(=O)(=O)Nc2ccccc2)cc1	0	-3	-5	-5.0	-1	21%	0.7%
COC(=O)c1ccccc1NC(=S)NC(=O)C1CCCCC1	-5	5	-20	-2.6	18	-5%	-1.3%
COc1ccc(-n2c3c(cc(C(=O)N4CCCCC4)c2=O)C(=O)CC(C)(C)C3)cc1	-8	-4	-9	0.2	10	1%	-1.7%

Screening results: PubChem BioAssay, National Center for Advancing Translational Sciences (NCATS)
